HIV Env fusion – blocks HIV Env-driven cell-cell fusion. 360,000 compounds, 1.1% hits. HeLa-JRFL Env/CEM21 cell fusion, luciferase. inhibition, % at 12.3 µM;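 active = mean replicate inhibition score of at least 50 and every replicate individually at or above 50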;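 also: 0% = plate neutral controls and 100% = maraviroc near 300 nM; one replicate is shown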
Rce1 inhib – inhibitors of yeast Ras-converting enzyme | Q03530 | yeast membranes, quenched prenylated peptide cleavage fluorescence | calls only | 290,000 compounds, 0.27% hits | AID 2563;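 active = fall in fluorescence gain of 50% or more versus controls, with final raw signal at or below 3038400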;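 also: plate controls were neutral control wells for no effect and wells lacking membranes for full effect; tested at 10 µM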
Target sequence (Q03530 whole entry, looked up): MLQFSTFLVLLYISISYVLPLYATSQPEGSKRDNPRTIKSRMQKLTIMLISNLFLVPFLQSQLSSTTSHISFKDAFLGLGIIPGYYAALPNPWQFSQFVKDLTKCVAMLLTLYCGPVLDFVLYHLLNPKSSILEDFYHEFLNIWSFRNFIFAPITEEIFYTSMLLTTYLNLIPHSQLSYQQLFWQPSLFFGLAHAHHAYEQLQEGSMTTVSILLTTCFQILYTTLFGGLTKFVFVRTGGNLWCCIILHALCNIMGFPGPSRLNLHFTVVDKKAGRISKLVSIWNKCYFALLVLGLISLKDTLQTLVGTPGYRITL
CSC inhib – blocks cancer stem cells | cancer stem cell-like cells viability, luminescence | inhibition, % at 7.5 µM | 300,000 compounds, 1.1% hits;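 active = mean at 75% or more and at least half the replicates too; tested in HMLE shEcad cells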;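 also: 0% = median of negative and 100% = median of positive control wells; the first replicate is given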
PABP FP inh – blocks human PABP binding to poly(A) RNA; P11940; fluorescence polarization; inhibition, % at 35 µM; 290,000 compounds, 1% hits; AID 2014;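 active = 50% or more with normal probe brightness, or confirmed in later tests; about a fifth of its hits are not listed in these tables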;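 also: calls also rest on retests at 20 µM and on dose response follow-up; controls were probe without protein and protein plus probe with vehicle; some compounds called inactive have numbers as strong as hits; many hits fall short of the cut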
eIF4H FP inh – inhibitors of RNA binding by human eIF4H | Q15056 | eIF4H fluorescence polarization binding assay | inhibition, % at 35 µM | 290,000 compounds, 0.94% hits;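 active = 50% or more with normal probe brightness, or confirmed in later tests; about a fifth of its hits are not listed in these tables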;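 also: calls also rest on retests at 20 µM and on dose response follow-up; 0% = protein and probe with vehicle and 100% = probe without protein; strong numbers were not always called active; many hits fall short of the cut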
MT1-MMP act inh – MT1-MMP (human) activation inhibition | P50281 | HT1080 RFP-PRO-GFP cells, GFP/RFP ratio fluorescence, overnight; percent of plate control window, DMSO zero | GFP/RFP ratio change, % at 20 µM | 360,000 compounds, 0.061% hits | AID 651647;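 active = GFP/RFP ratio change of at least 30% with cell ATP level not reduced by more than half and red fluorescence within 50% of control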; also: strong numbers were not always called active
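Assay system: HT1080 cells carrying an RFP-PRO-GFP reporter | Dosing: Single dose of 20 µM compound, 1% DMSO final | Incubation: Cells overnight before dosing, compound overnight, 37 °C, 5% CO2 | Evaluation: GFP/RFP fluorescence ratio | Control set: DMSO and RFP-L50D-GFP cell wells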
UUG fidelity – yeast start codon fidelity modulation; S. cerevisiae UUG-firefly luciferase reporter, luminescence/redox ratio; activity score, % at 18.7 µM; 350,000 compounds, 0.13% hits;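 active = replicate mean at a twofold rise or more, about +100% in these data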;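 also: firefly luciferase made from a UUG start codon reports start codon fidelity; reporter light over untreated wells divided by growth signal over untreated wells; some hits fall short of that in this replicate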
MT1-MMP act inh RFP – further read-out of MT1-MMP act inh, marked with its call; RFP signal change, %; measured here: RFP expression control read;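 0 = vehicle wells; hits needed this value within 50% of zero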
Active calls of the source: *; i = inactive; / = not tested or not shown. Not all compounds are listed; rates above refer to the full screens.

cpd	mol	MT1-MMP act inh	Rce1 inhib	eIF4H FP inh	PABP FP inh
1	COc1cc(CN=Cc2c(O)n(C(C)(C)C)c(=O)[nH]c2=O)cc(OC)c1	-5	i	8	3
2	COc1ccc(C2=NCC(=O)N(CC(=O)NCc3ccco3)c3sc4c(c32)CCCC4)cc1	-3	i	-3	-2
3	Cc1nn(Cc2ccccc2)c(Cl)c1C(=O)OC(C)C(=O)Nc1ccc(F)cc1Cl (stereo not given)	-7	i	-11	-6
4	Cc1nc2ccccn2c1P(=S)(c1ccccc1)c1ccccc1	1	/	/	/
5	CCC(=NCCC(c1ccccc1)c1ccccc1)c1c(O)[nH]c(=O)[nH]c1=O	-3	i	-8	-2
6	CCCCn1c(O)c(C(C)=Nc2ccc3c(c2)CCC3)c(=O)[nH]c1=O	-2	i	1	6

cpd	CSC inhib	HIV Env fusion	UUG fidelity	MT1-MMP act inh RFP
1	-5	7	/	-6
2	3	-6	8	-4
3	-1	12	-7	-18
4	/	28	-35	1
5	15	/	0	1
6	14	12	10	-3

Of the compounds above, these contain an aryl methoxy group.
cpd	mol	MT1-MMP act inh	Rce1 inhib	eIF4H FP inh	PABP FP inh
1	COc1cc(CN=Cc2c(O)n(C(C)(C)C)c(=O)[nH]c2=O)cc(OC)c1	-5	i	8	3
2	COc1ccc(C2=NCC(=O)N(CC(=O)NCc3ccco3)c3sc4c(c32)CCCC4)cc1	-3	i	-3	-2

cpd	CSC inhib	HIV Env fusion	UUG fidelity	MT1-MMP act inh RFP
1	-5	7	/	-6
2	3	-6	8	-4

Laid out differently: entries from further up
no.	molecule	MT1-MMP act inh	Rce1 inhib	eIF4H FP inh	PABP FP inh	CSC inhib	HIV Env fusion	UUG fidelity	MT1-MMP act inh RFP
3	Cc1nn(Cc2ccccc2)c(Cl)c1C(=O)OC(C)C(=O)Nc1ccc(F)cc1Cl (stereo not given)	-7	i	-11	-6	-1	12	-7	-18
4	Cc1nc2ccccn2c1P(=S)(c1ccccc1)c1ccccc1	1	/	/	/	/	28	-35	1
5	CCC(=NCCC(c1ccccc1)c1ccccc1)c1c(O)[nH]c(=O)[nH]c1=O	-3	i	-8	-2	15	/	0	1
